Source: PubChem
PABP polyA inh = PABP-poly(A) binding inhibition; P11940; PABP-poly(A) RNA binding, fluorescence polarization; inhibition, % at 35 µM; 290,000 compounds, 1% hits;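 active = 50% or more with normal probe brightness, or confirmed in later tests; inconclusive = above 50% with abnormal brightness, or retests that disagree; inactive = below 50% or failed in later tests; about a fifth of its hits are not listed in these tables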;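 also: calls also rest on retests at 20 µM and on dose response follow-up; controls were probe without protein and protein plus probe with vehicle; some compounds called inactive have numbers as strong as hits; many hits fall short of the cut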
Target sequence (P11940 whole entry, looked up): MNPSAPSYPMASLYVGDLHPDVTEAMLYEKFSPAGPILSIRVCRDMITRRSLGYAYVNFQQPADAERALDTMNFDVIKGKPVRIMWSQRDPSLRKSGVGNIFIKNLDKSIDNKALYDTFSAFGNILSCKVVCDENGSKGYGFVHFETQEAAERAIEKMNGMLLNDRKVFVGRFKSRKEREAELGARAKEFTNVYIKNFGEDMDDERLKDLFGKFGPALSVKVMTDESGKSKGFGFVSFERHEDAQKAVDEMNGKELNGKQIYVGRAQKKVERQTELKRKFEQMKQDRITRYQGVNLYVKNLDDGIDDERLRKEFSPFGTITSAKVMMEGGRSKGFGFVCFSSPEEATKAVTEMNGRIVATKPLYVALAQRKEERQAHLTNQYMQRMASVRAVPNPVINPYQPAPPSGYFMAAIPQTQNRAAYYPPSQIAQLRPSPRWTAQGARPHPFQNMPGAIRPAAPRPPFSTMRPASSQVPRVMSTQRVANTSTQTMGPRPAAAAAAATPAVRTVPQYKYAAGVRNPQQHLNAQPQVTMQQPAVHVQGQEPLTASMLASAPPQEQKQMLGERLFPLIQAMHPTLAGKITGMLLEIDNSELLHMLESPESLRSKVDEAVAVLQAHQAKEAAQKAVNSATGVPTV
Rce1 inh = yeast Ras-converting enzyme inhibition | 290,000 compounds, 0.27% hits | calls only | yeast membranes, quenched prenylated peptide cleavage fluorescence | Q03530;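 active = fall in fluorescence gain of 50% or more versus controls, with final raw signal at or below 3038400; inconclusive = same 50% fall but final raw signal above 3038400; inactive = fall in fluorescence gain under 50%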;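 also: plate controls were neutral control wells for no effect and wells lacking membranes for full effect; tested at 10 µM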
MT1-MMP act inh = MT1-MMP (human) activation inhibition; AID 651647; GFP/RFP ratio change, % at 20 µM; P50281; 360,000 compounds, 0.061% hits; HT1080 RFP-PRO-GFP cells, GFP/RFP ratio fluorescence, overnight; percent of plate control window, DMSO zero;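 active = GFP/RFP ratio change of at least 30% with cell ATP level not reduced by more than half and red fluorescence within 50% of control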; also: strong numbers were not always called active
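Compound: 20 µM single dose, 1% DMSO / System: HT1080 RFP-PRO-GFP cells / Controls: DMSO and RFP-L50D-GFP cell wells / Read-out basis: GFP/RFP fluorescence ratio / Schedule: overnight compound exposure at 37 °C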
HIV Env fusion = inhibitors of HIV Env-mediated cell fusion. 360,000 compounds, 1.1% hits. inhibition, % at 12.3 µM. HeLa-JRFL Env/CEM21 cell fusion, luciferase;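 active = mean replicate inhibition score of at least 50 and every replicate individually at or above 50; inconclusive = only one of the two criteria met; inactive = mean below 50 and not all replicates reaching 50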;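 also: 0% = plate neutral controls and 100% = maraviroc near 300 nM; one replicate is shown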
eIF4H inh = inhibitors of RNA binding by human eIF4H | Q15056 | eIF4H fluorescence polarization binding assay | inhibition, % at 35 µM | 290,000 compounds, 0.94% hits;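 active = 50% or more with normal probe brightness, or confirmed in later tests; inconclusive = above 50% with abnormal brightness, or retests that disagree; inactive = below 50% or failed in later tests; about a fifth of its hits are not listed in these tables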;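 also: calls also rest on retests at 20 µM and on dose response follow-up; 0% = protein and probe with vehicle and 100% = probe without protein; strong numbers were not always called active; many hits fall short of the cut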
CSC inhib = blocks cancer stem cells; cancer stem cell-like cells viability, luminescence; inhibition, % at 7.5 µM; 300,000 compounds, 1.1% hits; AID 2717;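 active = mean at 75% or more and at least half the replicates too; inconclusive = mean and replicates disagree; tested in HMLE shEcad cells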;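 also: 0% = median of negative and 100% = median of positive control wells; the first replicate is given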
Yeast UUG start = alters start codon recognition fidelity in yeast | S. cerevisiae UUG-firefly luciferase reporter, luminescence/redox ratio | activity score, % at 18.7 µM | 350,000 compounds, 0.13% hits;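 active = replicate mean at a twofold rise or more, about +100% in these data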;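 also: firefly luciferase made from a UUG start codon reports start codon fidelity; reporter light over untreated wells divided by growth signal over untreated wells; some hits fall short of that in this replicate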
MT1-MMP act inh RFP = also measured in MT1-MMP act inh; calls as there; RFP signal change, %; measured here: RFP expression control read;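 0 = vehicle wells; hits needed this value within 50% of zero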
Active calls of the source: *; i = inactive; ? = inconclusive; · = not tested or not shown.

SMILES | PABP polyA inh | Rce1 inh | MT1-MMP act inh | MT1-MMP act inh RFP | HIV Env fusion | eIF4H inh | CSC inhib | Yeast UUG start
CCCC(=O)Nc1ccc(OCC(O)CNC(C)C)c(C(C)=O)c1 (configuration not stated) | 8.9 | i | 3.8 | 5.3 | -6.9 | -0.8 | -6.2 | 10.8
NC(Cc1ccccc1)c1csc(Nc2cc(Oc3ccccc3)ncn2)n1 (configuration not stated) | · | · | -5.7 | -6.8 | -44.1 | · | · | -12.0
O=C(CC[C@H]1O[C@@H](n2cnc3c(NC(=O)c4ccccc4)ncnc32)[C@H](O)[C@@H]1O)NCc1nc2ccccc2[nH]1 | · | · | 1.9 | 0.8 | 5.7 | · | · | -11.4
CC(C)NC(=O)C1(C)CCCN1Cc1ccccc1C#N (configuration not stated) | · | · | 4.0 | 5.7 | -21.4 | · | · | -16.5
NC1=NC(=O)/C(=C/c2cn(Cc3ccccc3)c3ccccc23)S1 | -11.5 | i | -5.1 | 0.3 | -7.9 | -7.3 | -22.3 | ·
O=C(OCc1csc(-c2ccccc2)n1)c1ccc(O)cc1 | -2.3 | i | 1.1 | 6.7 | -20.0 | -8.4 | -7.8 | ·
Cc1ccccc1-n1c(SCC(=O)N2CCC(C(=O)O)CC2)nnc1-c1ccncc1 | 11.3 | i | -3.1 | -6.2 | -14.0 | 3.0 | -5.8 | -3.7
Nc1ccccc1C(=O)NCCCN1CCN(c2cccc(Cl)c2)CC1 | · | i | 1.2 | -3.9 | 4.7 | · | 13.9 | ·
CC(=O)Nc1ccc(N2CC(C)(C)C2=O)cc1 | 0.8 | i | 2.2 | 1.9 | -4.5 | 1.0 | -1.1 | ·
COC(=O)CNC(=O)c1ccc(=O)oc1 | -1.8 | · | -0.4 | 1.1 | · | -5.4 | -2.9 | -3.1
CCCC(C(=O)NC1CCCC1)N(Cc1ccc2c(c1)OCO2)C(=O)c1snc(C(N)=O)c1N (configuration not stated) | 9.1 | i | 6.1 | -5.5 | -8.0 | 0.2 | 6.8 | 2.3
COc1cccc(NC(=O)CCC2CCN(C(=O)c3c(C)noc3C)CC2)c1 | -1.0 | i | 1.5 | -0.2 | 4.9 | -19.0 | · | -10.7
CCCCn1c(N)c(N(Cc2ccccc2OC)C(=O)CN2C(=O)NC(C)(c3ccccc3)C2=O)c(=O)[nH]c1=O (configuration not stated) | · | i | 4.3 | 9.7 | · | · | 2.2 | 5.6
Cc1ccc(S(=O)(=O)NCCOc2nc(N3CCOCC3)nc(N3CCOCC3)n2)cc1 | -8.1 | i | 0.6 | 3.6 | · | -5.7 | -9.8 | -11.6
CSc1nc(-c2ccc(C)cc2)[nH]c1S(=O)(=O)c1ccccc1 | 39.4 | i | 4.3 | -14.1 | -37.0 | -9.8 | 2.3 | -4.1
COc1ccccc1NC(=O)CSc1nccc(-c2ccco2)n1 | · | · | -2.9 | 1.5 | -9.2 | · | · | 0.7
COc1ccccc1COn1c(=O)c(-c2ccco2)[n+]([O-])c2ccccc21 | 25.5 | i | -8.5 | 1.4 | -62.0 | 23.5 | · | ·
Cc1ccc(N=Cc2cc3c(cc2[N+](=O)[O-])OCO3)cc1[N+](=O)[O-] | · | i | 3.0 | 2.2 | -3.0 | · | -5.2 | -22.1
CC(=O)C1C(C)CC2C3CCC4CC(=O)CCC4(C)C3CCC21C (configuration not stated) | · | · | 2.5 | -4.7 | -8.5 | · | · | -0.1
COc1ccc(NC(=O)N2CCCC(CNS(=O)(=O)c3cccs3)C2)c(C)c1 (configuration not stated) | -0.1 | i | -1.9 | -4.2 | 17.3 | -4.1 | 50.8 | ·
Clc1ccc(Nc2ncn[nH]2)cc1 | -8.8 | i | -0.7 | 2.8 | -13.4 | -8.7 | -11.0 | -4.1
CCc1c(C)c2cc(Cl)c(O)c(CN3CCCC3)c2oc1=O | 7.9 | ? | 6.2 | 3.8 | 8.1 | -6.9 | -1.8 | -15.5
Cc1ccc(N=Cc2nc(-c3ccc(C)cc3)oc2O)cc1 | 0.3 | i | 4.6 | 1.6 | -1.8 | 1.5 | · | ·
Cc1cc2oc3ccc(NCCC4CCCN4C)cc3c(=O)c2cc1C (configuration not stated) | · | i | -18.8 | 1.4 | -56.0 | · | 9.9 | -16.7
Cc1cc(C(=O)Cn2nnc3ccccc3c2=O)c(C)n1-c1c(C)n(C)n(-c2ccccc2)c1=O | -4.2 | i | 2.0 | 3.3 | · | 0.2 | -12.5 | 4.0
O=C(c1ccccc1/S(=N/S(=O)(=O)c1ccccc1)N1CCOCC1)N1CCOCC1 (configuration not stated) | -10.2 | · | 3.1 | 4.1 | -116.2 | -3.6 | -19.0 | -12.2
COc1cc(NC(=O)CC(C)n2ccnc2)cc(OC)c1 (configuration not stated) | -3.1 | i | 0.5 | 3.9 | -9.3 | 1.6 | -21.7 | -35.6
COc1ccc(-c2ccc(C(=O)Nc3ccc(OC)nc3)c3occc23)c(C)c1 | · | · | -2.9 | -29.5 | -12.6 | · | · | 10.3
Cc1cccc2nc3c(nc12)-c1ccccc1C3=O | 12.0 | i | 3.9 | 4.4 | -56.2 | 2.1 | 10.3 | ·
COc1ccc(NC(=O)CC2C(=O)N(c3cccc(OC)c3)C(=O)N2CCC(C)C)cc1 (configuration not stated) | -1.0 | i | 3.3 | 4.0 | -6.0 | -2.7 | -5.1 | -5.8
CCOc1cccc(NCc2cc3c(C(C)(C)C)nn(-c4ccccc4)c3[nH]c2=O)c1 | 8.5 | i | 2.0 | -0.9 | · | -18.2 | -3.3 | 1.4
COc1ccc(C(=O)C2CCN(C(=S)NCCc3ccccc3)CC2)cc1 | 5.3 | i | 4.1 | -5.4 | -39.1 | -1.3 | -2.9 | ·
O=C(CN1C(=O)c2ccccc2S1(=O)=O)N1CCN(c2ccccc2)CC1 | 12.6 | i | -2.4 | -1.8 | · | 3.8 | -0.1 | ·
Cc1ccc(S(=O)(=O)N2CCC(=O)N(C(COCc3ccc(C(F)(F)F)cc3)Cc3ccccc3)CC2)cc1 (configuration not stated) | 5.5 | i | -6.5 | -6.9 | 6.3 | 9.6 | 5.7 | -8.3
Cc1ccc(C)c(S(=O)(=O)N2CCCCC2CCNC(=O)C(=O)NCc2ccccc2)c1 (configuration not stated) | · | i | -4.2 | -15.6 | 14.4 | · | 1.9 | -22.7
CCCC(=O)Nc1ccc(C(=O)N/N=C/c2cccnc2)cc1 | -2.6 | i | -4.9 | 1.0 | -42.7 | -4.8 | -11.7 | -14.3
CC(C)(C)OC(=O)NCCCCCNC(=O)c1nc[nH]c1C(=O)NCc1ccc(CNC(=O)OC(C)(C)C)cc1 | · | · | 19.2 | -27.5 | 29.6 | · | 26.7 | -9.1
CCOc1ccc(-c2nnc(SCC(=O)N3CCN(c4ccccc4)CC3)o2)cc1 | -3.5 | i | 1.4 | 2.4 | -27.3 | 9.7 | -7.5 | -17.6
CNC(=O)c1[nH]cnc1C(=O)N[C@@H](Cc1ccccc1)C(=O)OCc1ccccc1 | 1.3 | i | 7.0 | 7.7 | -8.3 | 3.8 | 8.4 | 20.5
CC(C)NC(=O)CSc1ccccc1C(=O)NNC(=O)Cn1ccc(C(F)(F)F)n1 | · | i | 3.2 | -0.5 | -12.1 | · | -11.8 | -2.9
CCC(=O)N1CCc2cc(S(=O)(=O)NC(C(=O)Nc3cccc(C)n3)C(C)C)ccc21 (configuration not stated) | 3.7 | i | -2.3 | -0.2 | 2.5 | 3.5 | · | 8.1
CCn1c(SCC(=O)N(C)Cc2ccc(OC)c(F)c2)nc2cc(S(N)(=O)=O)ccc21 | 2.0 | i | 2.0 | 1.3 | 12.7 | -21.9 | 4.3 | -12.5
CC(C)C(=O)N/N=C/c1ccc(OCc2ccccc2)cc1 | 0.6 | i | -2.2 | -4.2 | · | 21.4 | -7.5 | -10.4
CCOC(=O)/C(=N\Nc1cccc(Cl)c1)Sc1nnc(-c2ccc(OC)cc2)n1C | -7.2 | i | 2.2 | 3.0 | · | -4.0 | 19.7 | ·
O=C(O)Cn1ccnc1 | 2.3 | · | 0.3 | -5.2 | 7.6 | -4.8 | 12.5 | 5.9
COC(=O)COc1ccc(S(=O)(=O)Nc2cc(OC)ccc2OC)cc1 | 6.1 | i | · | · | · | 8.9 | · | ·
CCOC(=O)C1(Cc2ccccc2C)CCCN(Cc2cc(OC)c(O)c(OC)c2)C1 (configuration not stated) | -0.4 | i | -3.0 | 1.5 | 17.0 | -1.7 | 4.5 | ·
Cc1ccc(Cl)c(NC(=O)COC(=O)C2CCC2)c1Cl | · | i | -3.2 | 0.7 | 5.2 | · | -0.9 | 6.2
Cc1cc(C)c2cc(C#N)c(SCC(=O)Nc3cc(C)on3)nc2c1 | 6.0 | i | -49.3 | -3.4 | -3.1 | -2.2 | -2.3 | -15.1
COc1ccc(F)cc1S(=O)(=O)N1CCN(c2ccccn2)CC1 | 3.6 | i | 1.4 | -0.7 | 11.7 | 0.9 | 2.7 | 0.1

Reprinted from the part before: 3 compounds, followed by the next part.
SMILES | PABP polyA inh | Rce1 inh | MT1-MMP act inh | MT1-MMP act inh RFP | HIV Env fusion | eIF4H inh | CSC inhib | Yeast UUG start
Cc1ccc(Cl)c(NC(=O)COC(=O)C2CCC2)c1Cl | · | i | -3.2 | 0.7 | 5.2 | · | -0.9 | 6.2
Cc1cc(C)c2cc(C#N)c(SCC(=O)Nc3cc(C)on3)nc2c1 | 6.0 | i | -49.3 | -3.4 | -3.1 | -2.2 | -2.3 | -15.1
COc1ccc(F)cc1S(=O)(=O)N1CCN(c2ccccn2)CC1 | 3.6 | i | 1.4 | -0.7 | 11.7 | 0.9 | 2.7 | 0.1
COc1ccc(C2(C(=O)NCCc3ccccc3)CCCC2)cc1 | 6.9 | i | -0.2 | -3.3 | 17.9 | -1.9 | -16.5 | -6.7
CC(=O)Nc1ccc2nc(NC(=O)C(Cl)(Cl)Cl)sc2c1 | 7.8 | i | -0.7 | 1.3 | -4.1 | 5.1 | -3.7 | ·
CCOC(=O)C1=C(N)OC(C)=C(C#N)C1c1ccco1 (configuration not stated) | -3.7 | i | 1.3 | 7.5 | · | 5.2 | 8.0 | ·
NC1=NC(=O)CC(C(=O)Nc2cccc3ccccc23)S1 (configuration not stated) | -8.7 | i | -1.0 | 3.7 | · | -5.9 | -3.7 | ·
COc1cccc2c1-c1c(O)cccc1C2=O | 28.5 | i | 1.8 | 1.6 | -41.1 | 42.8 | -3.6 | -8.4
COc1ccccc1CN1CCN(Cc2cc(OC)c(OC)cc2OC)CC1 | -7.7 | i | 3.3 | 5.1 | -1.6 | -16.4 | 6.8 | -1.7
Cc1cc(OC(C)C(N)=O)nc(-c2ccccc2)n1 (configuration not stated) | 15.2 | i | 1.7 | 3.3 | 2.4 | -1.3 | 2.6 | ·
CCOC(=O)N=Nc1c2ccccc2c2nc3no[nH]c3nc12 | -4.5 | · | -9.0 | -20.3 | 76.1* | 11.1 | · | -13.9
O=S(=O)(/N=C(/c1ccc(Cl)cc1)N1CCOCC1)c1ccc(Cl)cc1 | -4.9 | i | -0.2 | 1.6 | · | -14.5 | 2.9 | -1.2
COc1ccc(CNc2ccc(C)c(C)c2)cc1 | -3.5 | i | 2.5 | 3.2 | 4.4 | -4.9 | 10.5 | ·
N#Cc1cc(-c2ccccc2)nn1-c1ccccc1 | 24.3 | i | 0.5 | -0.1 | -166.9 | -1.8 | 16.9 | -16.6
Cc1cccc(C)c1NC(=O)C(C)N1CCCC1 (configuration not stated) | -0.5 | i | -3.8 | -0.1 | -1.1 | -5.2 | -3.2 | -14.2
N#Cc1c(-c2ccccc2)[nH]c(=O)[nH]c1=O | -2.9 | i | 1.2 | 1.9 | 12.4 | -10.1 | · | ·
